Biofilm kill mix: mixtures killing C. albicans biofilm; C. albicans biofilm persisters + clotrimazole, fluorescence viability; primary screen in compound mixtures of four per well; inhibition, % at 7.6 µM; actives 0.02% (n = 120,000);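 active means inhibition above 30.3% in the primary screen of four-compound pools, then above 30% when the compound was retested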;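 further: compounds exposed to preformed 24 h biofilms for 48 h; the number belongs to the whole pool; some results filed as inactive read as strong as hits; inactives centre near 12; 0% = biofilm with clotrimazole alone and 100% = kill control; retested singly at about 60 µM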
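System: C. albicans CAF4-2 wild-type biofilms; Medium: RPMI/MOPS medium, pH 7.0; Reagent: Clotrimazole, 50 µg/mL; Times: biofilm formation 24 h, compound exposure 48 h, 37 °C; Detection: 2-h Alamar Blue fluorescence, 535/590 nm excitation/emission; Evaluation: percent inhibition of biofilm viability.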
Starred values were filed as active, the others as inactive. These rows are one share of the data; count on the stated rates, not on these rows.

SMILES | Biofilm kill mix
O=C(O)Cc1ccc(NC(=O)CCN2C(=O)c3ccc([N+](=O)[O-])cc3C2=O)cc1 | 8
Cc1nnc(Sc2cc(NCCCO)c([N+](=O)[O-])c3nonc23)s1 | 17
O=C(NCc1ccc2c(c1)OCO2)c1ccc(S(=O)(=O)N2CCOCC2)cc1 | 17
COc1ccc(Cl)cc1NC(=O)CN(C)CC(=O)Nc1ccc(C)cc1Br | 11
O=C(N/N=C/c1ccc(N2CCCCC2)o1)c1ccccc1[N+](=O)[O-] | 3
N#C/C(=C/c1cccs1)c1ccccn1 | 21
O=C(Nc1ccc(C2SCCS2)cc1)c1ccccc1 | 21
C=CCn1c(C(CCCC)CC(O)COCC(C)C)n[nH]c1=S (stereo unspecified) | 22
COc1cc(/C=C(\NC(C)=O)C(=O)Nc2cccc(O)c2)ccc1OC(C)=O | 13
[O-][n+]1onc2c1CCC(=N/O)/C2=N\Nc1ccccc1 | 10
CC(=O)Nc1ccc(S(=O)(=O)NCC2CCC(C(=O)NC3CCCCCC3)CC2)cc1 (stereo unspecified) | 21
CCCCCCC(=O)NNC(=O)c1c(O)c2ccccc2n(CC)c1=O | 16
Cc1nc[nH]c(=O)c1Br | 11
CC(C)C(=O)Nc1cccc(NC(=O)c2cccc(F)c2)c1 | 19
O=C(O)c1cccc(NC(=S)N/N=C/c2ccccn2)c1 | 5
Cc1cccc(C)c1NC(=O)c1cn(-c2ccccc2)nc1-c1ccccc1 | 7
COc1ccc(-n2nnnc2SCC(=O)NCCc2ccccc2)cc1OC | 2
CS(=O)(=O)c1ccc(Cl)c(NC(=O)COC(=O)c2cccc(C#N)c2)c1 | 17
O=c1[nH]c2cc([N+](=O)[O-])c(NCCO)c([N+](=O)[O-])c2[nH]1 | 0
COC(C[C@H]1O[C@H]1[C@@H](O)[C@@H](C)OCc1ccccc1)OC | 19

Four neighbouring records out of the list so far:
SMILES | Biofilm kill mix
Cc1cccc(C)c1NC(=O)c1cn(-c2ccccc2)nc1-c1ccccc1 | 7
COc1ccc(-n2nnnc2SCC(=O)NCCc2ccccc2)cc1OC | 2
CS(=O)(=O)c1ccc(Cl)c(NC(=O)COC(=O)c2cccc(C#N)c2)c1 | 17
O=c1[nH]c2cc([N+](=O)[O-])c(NCCO)c([N+](=O)[O-])c2[nH]1 | 0

Going on with the list.
SMILES | Biofilm kill mix
C/C(=N\NC(=O)c1nn(C)c(C)c1Br)c1ccc(NC(=O)c2ccc(C)s2)cc1 | 53
O=[N+]([O-])c1nn(-c2ccc3c(c2)OCCO3)n(O)c1=Nc1ccccc1 | 13
O=C(NC1CCCCC1)N1CCN(c2ccccc2)CC1 | 6
O=C(NN=C1CCCC1)c1cccs1 | -11
CCO[C@H]1OC(C(=O)N2CCCCCCC2)=C[C@@H](C2CCCCC2)[C@@H]1CCCO | 18
Cn1c(SCC(=O)NCCN2C(=O)CSC2=O)nnc1-c1ccccc1 | 19
Cc1nc(SCC(=O)c2cc3ccccc3oc2=O)c(C#N)c(-c2ccccc2)c1C(=O)Nc1ccccc1 | 21
CC1CCc2c(sc3ncnc(NCCN4CCOCC4)c23)C1 (stereo unspecified) | 14
CN(C)CCCNC(=O)c1ccc(=O)[nH]n1 | 20
CCCC1=NN(C(=O)CCc2ccccc2O)C(O)(C(F)(F)F)C1 (stereo unspecified) | 15
COCCNC(=O)CCc1nnc(Cc2ccc(-c3ccccc3)cc2)o1 | 14
O=S(=O)(c1ccc(-c2cc(C(F)(F)F)on2)s1)N1CCCC1 | 8
NC1=NC(=O)C(CC(=O)c2ccc(Cl)cc2)S1 (stereo unspecified) | 4
Cc1nn(Cc2ccc(F)cc2)c(C)c1NC(=O)c1nn(C)cc1Cl | 13
COc1ccc(OCc2cccc(C(=O)Nc3ccc(CN4CCCCC4)cc3)c2)cc1 | 4
CS(=O)(=O)CCC(C(=O)OCc1ccc(Cl)cc1)N1C(=O)c2ccccc2C1=O (stereo unspecified) | -5
C#CCn1c(C)cc(C)c(S(=O)(=O)c2ccccc2)c1=O | 10
O=C(O)CCC(=O)NN1C(=O)c2ccccc2NC1c1ccco1 (stereo unspecified) | 21
O=C(NC1CC1)C1=C[C@@H](c2csc3ccccc23)C[C@@H](OCCCCO)O1 | 23
CCOC(=O)C(=O)NNc1ccccc1OC | 28

Retrieved by structure from above, 2 records:
SMILES | Biofilm kill mix
O=C(NC1CC1)C1=C[C@@H](c2csc3ccccc23)C[C@@H](OCCCCO)O1 | 23
COc1ccc(OCc2cccc(C(=O)Nc3ccc(CN4CCCCC4)cc3)c2)cc1 | 4

Continuation:
SMILES | Biofilm kill mix
CCc1ccc(OCCOCC(O)CNC(C)(C)C)cc1 (stereo unspecified) | 18
Cc1ccc(CSCCNC(=O)CN(c2cccc([N+](=O)[O-])c2)S(C)(=O)=O)cc1 | 10
O=C(COC(=O)CCCc1nc2ccccc2s1)NC(=O)NCc1ccco1 | 10
O=Cc1ccnc(-c2ccc(OC(=O)c3ccco3)cc2)n1 | -1
CN(CCc1ccccn1)C(=O)CCC1CCCN(C(=O)c2ccc3c(c2)OCCO3)C1 (stereo unspecified) | 3
CC1(C(=O)O)Oc2cccnc2NC1=O (stereo unspecified) | 17
Cc1cccc(NC(=S)N(CCN(C)C)Cc2cc3cc(C)ccc3[nH]c2=O)c1 | 16
CN(Cc1cccs1)C(=O)Cc1c[nH]c2ccccc12 | 28
CC(=O)[C@@H]1[C@@H](C)N(Cc2ccccc2)C(=O)N[C@H]1c1cccc(C(F)(F)F)c1 | 17
C/C(N)=C(/C#N)C(=O)COC(=O)[C@@H](NC(=O)c1ccccc1Cl)C(C)C | 3
CN(CC(=O)Nc1ccc2c(c1)CCC2)CC(=O)Nc1ccccc1Br | 6
Cc1nc(-c2ccc(S(=O)(=O)N3CCCN(CCc4ccccc4)CC3)s2)cs1 | 21
O=C(/C=C/c1nc2ccccc2s1)N1CCCCCC1 | 8
O=C(Nc1cccnc1Cl)c1ccc2c(Cl)c3c(nc2c1)CCC3 | 6
CN(C)S(=O)(=O)c1cccc(NC(=O)CSc2nc3c(cc2C#N)C(=O)CC(C)(C)C3)c1 | 25
C=CC[N+]1(CC=C)CCOCC1 | 19
COc1ccc(OC)c(N2CC(O)(c3cccs3)[N+]3=C2SCCC3)c1 (stereo unspecified) | 14
CCNc1ccc(Br)cc(C(=O)/C=C/c2ccc(Cl)cc2)c1=O | 2
O=C(Cn1nnc2ccccc21)c1ccc(Br)cc1 | 5
CCCCC1=CC2=C(c3ccco3)C(=O)C(C)(OC(=O)c3ccc(OC)cc3)C(=O)C2=CN1CC1CC1 (stereo unspecified) | 13
N=C(N)SCc1ccccn1 | 4
CCn1nc(C)c(/C=N/NC(=O)Cn2nnc(N)n2)c1C | 19
CC(=O)Nc1cccc(C(=O)/C=C/c2ccc(/C=C/C(=O)c3cccc(NC(C)=O)c3)cc2)c1 | 20
C=CCNCCOc1ccc(C(C)(C)c2ccccc2)cc1 | 20
COc1cc(CNC(C)c2ccccc2)cc(Cl)c1OCC(=O)Nc1ccccc1 (stereo unspecified) | 18
O=c1[nH]c(SCCOc2cccc3ccccc23)nc2ccccc12 | 8
COc1ccc(C2=NN(C(=O)c3ccco3)C(c3cc4ccccc4nc3Cl)C2)cc1 (stereo unspecified) | 21
COc1ccccc1NCCC(=O)OCC(=O)NC1CCCCCC1 | 4
Cc1cc(C)n(-c2nnc(NC34CC5CC(CC(C5)C3)C4)nn2)n1 | -6
O=C(CCc1ccccc1)NCC(=O)N/N=C/c1ccc(O)cc1O | 8
COc1cc(/C=C2\SC(=S)N(Nc3ccccc3)C2=O)ccc1O | 16
COc1cc(C2NC(=O)NC(c3ccccc3)=C2C(C)=O)c(Cl)cc1OCC(=O)O (stereo unspecified) | 6
Fc1ccccc1/C=C1\CCCC2=C1NC(=S)NC2c1ccccc1F (stereo unspecified) | 9
Fc1cccc(/C=N/Nc2ccccn2)c1 | 13
COc1ccc(N2CC(NC(=O)Nc3ccccc3)CC2=O)cc1 (stereo unspecified) | 15
O=C(NC(=S)Nc1nc2ccc(F)cc2s1)c1ccco1 | 9
NS(=O)(=O)c1ccc(NC(=O)COC(=O)CNC(=O)C23CC4CC(CC(C4)C2)C3)cc1 | 5
Cc1cnc(C)c(N2CCN(Cc3nc(-c4ccc(C)o4)oc3C)CC2)n1 | 19
O=C(Cc1nnc(NC(=O)Nc2ccccc2)s1)NCc1ccccc1 | 15
S=C(Nc1ccccc1Cl)N(Cc1ccccc1)Cc1ccccn1 | 8

Four structures already listed, ordered by heavy-atom count, rising:
SMILES | Biofilm kill mix
Fc1cccc(/C=N/Nc2ccccn2)c1 | 13
COc1ccc(N2CC(NC(=O)Nc3ccccc3)CC2=O)cc1 (stereo unspecified) | 15
O=C(Cc1nnc(NC(=O)Nc2ccccc2)s1)NCc1ccccc1 | 15
NS(=O)(=O)c1ccc(NC(=O)COC(=O)CNC(=O)C23CC4CC(CC(C4)C2)C3)cc1 | 5

(further entries)
SMILES | Biofilm kill mix
Cc1cc(C)c2nc(NC(=O)C3CC(=O)N(Cc4ccco4)C3)sc2c1 (stereo unspecified) | 8
COc1ccccc1C(=O)NC(=S)NNC(=O)c1sc2ccccc2c1Cl | 30
CCCn1c(N)c(C(=O)CSc2nc3ccccc3c(=O)n2Cc2ccccc2)c(=O)[nH]c1=O | 11
CCOC(=O)C1=C(C)C2C3C(=O)N(c4ccc(C)cc4C)C(=O)C3C1(C)C1C(=O)N(c3ccc(C)cc3C)C(=O)C21 (stereo unspecified) | 9
CCOc1ncccc1C(=O)OCc1c(Cl)cccc1Cl | 9
O=C(Cc1cccs1)NCc1cccc(F)c1 | 14
O=c1[nH][nH]cc1C=NCc1cccnc1 | 17
NC(=O)COC(=O)c1ccc(Cl)c(S(=O)(=O)N(Cc2ccccc2)c2ccc(Cl)cc2)c1 | 13
NC(=O)c1ccc(N2CCN(c3ccc(O)cc3)CC2)c([N+](=O)[O-])c1 | 20
CCN(C(=O)Cn1c(=O)oc2cc(S(=O)(=O)N3CCOCC3)ccc21)c1ccccc1 | 5
Nc1c(Cl)ncnc1N/N=C/c1cccc(O)c1 | 25
O=[N+]([O-])c1cccnc1Oc1ccc(F)cc1 | 15
O=C(CN1C(=O)c2ccccc2S1(=O)=O)c1ccc2c(c1)OCCCO2 | 21
CC(C)C(=O)N1CCC2(CC1)Oc1ccc(Cl)cc1C(=O)C21CC(c2ccc(Cl)cc2)=NO1 (stereo unspecified) | 19
O=[N+]([O-])c1ccc(-c2ccc(/C=N/O)o2)cc1 | 17
CC(=C/c1ccco1)/C=N/NC(=O)Cc1cccn1C | 13
Cc1ccc(N2CCN(C(=O)c3ccccc3NC(=O)c3ccccc3C(=O)O)CC2)cc1 | -11
Cn1c([N+](=O)[O-])cnc1N1CCN(c2nncs2)C1=O | 0
O=[N+]([O-])c1cccc(NC2=NCCC2)c1 | -4
C[C@@H](C(=O)N[C@@H](Cc1c[nH]c2ccccc12)C(=O)O)n1nnc2ccccc2c1=O | 33
CC(C#N)(Nc1ccc(Cl)cc1)c1cccnc1 (stereo unspecified) | 21
CCc1cccc(C)c1NC(=S)NCc1cccn1C | 14
NC(=O)CN1CCN(C2CC(=O)N(CCc3ccccc3)C2=O)CC1 (stereo unspecified) | 7
Cc1ncc(CN2CCN(Cc3ccc(F)cc3)C(CCO)C2)s1 (stereo unspecified) | 16
CCC(C)(C)NC(=O)C(c1ccc(F)cc1)N(Cc1ccc(OC)cc1)C(=O)c1cnccn1 (stereo unspecified) | 16
CN(C(=O)CSc1ncnc2sc(-c3ccccc3)cc12)C1CCS(=O)(=O)C1 (stereo unspecified) | 8
N#CC1=C(N)N(c2ccc(F)cc2)C2=C(C1c1ccc(O)cc1)S(=O)(=O)CC2 (stereo unspecified) | 13
CSCCC(NS(=O)(=O)c1ccc(Br)cc1)C(=O)OCC(=O)NC1CC1 (stereo unspecified) | -11
CC1CC(C)(C)NC(=S)N1CC(=O)N1CCN(Cc2ccccc2)CC1 (stereo unspecified) | 26
COc1ccc(C(=O)/C=C/Nc2ccc(S(N)(=O)=O)cc2)cc1OC | 18
CCN(CC(=O)Nc1ccc(OC)cc1)CC(=O)Nc1ccc(Br)cc1F | 8
Cc1sc(N)c(C(=O)c2ccccc2)c1C | 6
CN(C)S(=O)(=O)c1ccc(C(=O)NCC(=O)N/N=C/c2ccccc2Cl)cc1 | 4
O=C1CC(N2CCSCC2)C(=O)N1c1ccccc1 (stereo unspecified) | 12
O=C(c1ccc(Cl)c(S(=O)(=O)N2CCOCC2)c1)N(c1ccccn1)C1CCCCC1 | 9
N#Cc1c(Nc2ccccc2C(F)(F)F)s[nH]c1=O | 22
CCOC(=O)c1c(NC(=O)CN2CCCc3ccccc32)sc(C)c1CC | 5
Cc1ccc(C(=O)OC(C)CN2CCOCC2)cc1 (stereo unspecified) | 4
CC(Sc1nc2ccccc2s1)C(=O)NCc1ccc2c(c1)OCO2 (stereo unspecified) | 17
COc1ccccc1CNc1ccc2nnc(CCNC(=O)c3ccc(C)cc3)n2n1 | 14
CCSc1nnc(NC(=O)CSC2=NCCS2)s1 | 16
S=c1[nH]nc(Nc2ccccc2)s1 | 13
CN(C)c1ccc(C2CC(c3ccccc3)=Nc3nc(-c4ccccc4)cn32)cc1 (stereo unspecified) | 22
c1csc(CNCc2ccncc2)c1 | 11
CCCCNC(=S)N/N=C/c1ccc(OCC(=O)Nc2c(C)cc(C)cc2C)c(OC)c1 | 12

Source: PubChem (PCMD)
